Screening results: PubChem BioAssay, National Center for Advancing Translational Sciences (NCATS)
TsaE inh – displaces an ADP probe from E. coli YjeE (TsaE) | Potency, µM | 71,000 compounds, 0.05% hits | P0AF67 | purified YjeE, fluorescence polarisation of a bound ADP probe; active = well fitted falling curve; inconclusive = weaker or top-dose-only fall, or a rising curve; inactive = flat or poorly fitted curve;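 further: top concentration of the series not given in the record; excess ADP was the control for the full effect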
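Purified YjeE (10 uM) with BODIPY Texas Red-labeled ADP probe (2 uM); compounds pin-transferred, 15 min at room temperature. Binding inhibition read as decreased fluorescence polarization; ADP titration as control.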
PK Bst – alters activity of Bacillus stearothermophilus pyruvate kinase | partly purified Bacillus stearothermophilus pyruvate kinase, luminescence ATP production; ribose 5-phosphate activator present at AC10 | 51,000 compounds, 1.2% hits | AID 361 | Potency, µM; in the data active means potency below about 11 µM; inconclusive means mostly about 12 µM to 25 µM; inactive means weaker than that;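 the screen sought inhibitors and activators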;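 further: potency means the concentration at half of the fitted maximal effect; scaled between full activation by ribose 5 phosphate and full inhibition by luteolin; about four in five hits inhibit and the cells do not say which; series up to 57 µM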
Starred values were filed as active, the others as inactive; i = inactive; ? = inconclusive; · = not tested or not shown. Some of the compounds tested (hit frequency here may not be typical).

structure	TsaE inh	PK Bst
CCc1nc(N)c(C#N)c(-c2ccccc2OC)c1C	i	>57
COc1ccc(C2NC(=O)CS2)cc1OC (centres undefined)	i	>57
Oc1ccc(Cc2cc(Cl)cc(Cl)c2O)cc1Cl	i	·
Cc1ccc(N=c2oc3cc(O)ccc3cc2C(N)=O)cc1	i	9.3*
O=C(Nc1ccc(S(=O)(=O)Nc2ccc(Cl)cc2)cc1)C1CCCO1 (centres undefined)	i	>57
Cc1ccc(N2CC(C(=O)Oc3cccc(N4C(=O)CCC4=O)c3)CC2=O)cc1 (centres undefined)	i	>57
Cn1c(SCc2ccccc2)nnc1-c1ccncc1	i	>57
COc1ccc(-c2nc(S(=O)(=O)c3ccc(C)cc3)c(N3CCCC3)o2)cc1	i	>57
CC1CCc2cc(F)cc3c(O)c(C(=O)NCc4ccco4)c(=O)n1c23 (centres undefined)	·	>11
Cc1ccc(S(=O)(=O)O)cc1C	i	·
Cn1c(=O)[nH]c(=O)c2c1nc(NCc1ccccc1)n2CC(O)c1ccccc1 (centres undefined)	i	>57
O=C(CCNS(=O)(=O)c1cccc2nsnc12)Nc1ccc2c(c1)OCCO2	i	?
CSc1nc(C)cc(OCCNS(=O)(=O)c2cc(C)ccc2C)n1	·	>11
O=NC1=C(c2c(O)[nH]c3ccccc23)CCCC1	i	·
CCOc1ccc(OCC)c(NC(=O)CSc2nnc(-c3cccnc3)o2)c1	i	>11
CC(Sc1cccc2cccc(C(=O)O)c12)C(=O)O (centres undefined)	i	?
O=c1c(-c2ccc(F)cc2)nc2cnc(N3CCOCC3)nc2n1-c1ccccc1	i	·
CC(C)c1nc(NCCN2CCOCC2)c(C#N)c2c1COC(C)(C)C2	·	>26
CCn1c(Sc2ccc(N)cc2Cl)nc2ccccc21	i	>57
CCCCNC(=O)C(NS(=O)(=O)c1cccc2nsnc12)c1ccccc1 (centres undefined)	i	>57
CCN(c1cccc(C)c1)S(=O)(=O)c1ccc2c(c1)CCN2C(C)=O	i	>57
CSCCC(NS(=O)(=O)c1ccc2c(c1)oc(=O)n2C)C(=O)NC1CCCCC1 (centres undefined)	i	·
Cn1c(=O)cc(OCCCC(=O)Nc2ccccn2)c2ccccc21	i	>57
CN(C)c1ccc(-c2ccc3ncnc(NC4CC4)c3c2)cc1	i	·
CCC(=O)N(Cc1ccco1)c1nc(-c2ccccc2)cs1	i	>57
COc1ccccc1OCC(=O)OCC(=O)NCCN1C(=O)CSC1=O	i	>57
COCCn1c(SCC(=O)Nc2cccc(C)c2)nnc1C(C)C	i	>57
O=C(c1ccccc1)N1CCCC(c2nc3c(nnn3Cc3ccccc3)c(=O)[nH]2)C1 (centres undefined)	i	>57
CCOC(=O)C1(C)NC(c2ccc(N(C)C)cc2)C2C(=O)N(CC)C(=O)C21 (centres undefined)	i	>57
Brc1ccc(-c2nc(-c3ccncc3)no2)o1	i	>57
O=c1cc(CSc2nnnn2-c2ccccc2)[nH]c2[nH]n(-c3ccccc3)c(=O)c12	i	·
CCCCCSc1nc2c(cnn2-c2ccccc2)c(=O)[nH]1	i	>57
O=C(Nc1nc2c(s1)CCCC2)c1ccc(Br)o1	i	·
COC(=O)c1sc(=S)n(-c2ccccc2)c1N	i	>57
Cc1ncc([N+](=O)[O-])n1C[C@H](O)CCl	i	·
COc1cccc(CC(=O)NCC2COc3ccccc3O2)c1OC (centres undefined)	i	>57
N#Cc1c(N)sc(=S)c2c1CCCC2	i	>57
CC(C)(C)OC(=O)NCCc1nnc(SCC(=O)c2ccc(Cl)cc2)o1	i	>57
Cc1ccccc1NC(=O)N1CCCC(c2nc(-c3ccc(C(C)C)cc3)no2)C1 (centres undefined)	i	>57
COc1ccc(C(=O)NCc2cccnc2)cc1OC	i	·
Cc1cc(SCC(=O)c2ccccc2)n2nc(C)nc2n1	i	·
COc1cccc(-c2cncnc2Nc2ccccc2)c1	i	·
CCOC(=O)N1CCC(NC(=O)C2CCN(S(=O)(=O)c3cnc[nH]3)CC2)CC1	i	>57
O=C(NCc1cccnc1)C1CC(=O)N(c2ccc(F)cc2)C1 (centres undefined)	i	·
CCC(=O)N1CCc2cc(S(=O)(=O)CCC(=O)NCCC3=CCCCC3)ccc21	i	>57
Cc1nc(NC2=NCN(CC3CCCO3)CN2)nc2ccccc12 (centres undefined)	i	>57
CCn1c(=O)cc(OCC(=O)NCCC(C)C)c2ccccc21	i	·
Cc1cc(C)nc(N(C#N)CC(=O)N(c2ccccc2)C(C)C)n1	·	>26

The list continues.
Order of values – TsaE inh	PK Bst
Cc1cc(=O)n(-c2ccccc2)n1C
    i	·
Cc1cc(C)n2c(SC/C(O)=C(\C#N)c3nc4ccccc4[nH]3)nnc2n1
    i	>57
O=C(NCc1ccccn1)c1cc2n(n1)C(C(F)(F)F)CC(c1ccco1)N2 (centres undefined)
    i	>57
CC1CCCCN1CCn1cnc2c([nH]c3ccccc32)c1=O (centres undefined)
    i	·
Cc1c(C(=O)NCCC2=CCCCC2)oc2ccc(S(=O)(=O)N3CCC4(CC3)OCCO4)cc12
    i	>57
COc1cc2nc(CN3C(=O)c4ccccc4C3=O)oc(=O)c2cc1OC
    i	·
COc1ccc(NS(=O)(=O)c2ccc(NC(C)=O)cc2)cc1OC
    i	·
COc1ccc2c(c1)CCC1[C@@H]2CCC2(C)[C@@H](NCCCCCCN3C(=O)C=CC3=O)CC[C@@H]12 (some centres undefined)
    i	·
CCCCCn1c(C(C)NC(=O)CCC)nc2ccccc21 (centres undefined)
    i	·
O=C(CSc1ccc2nnc(-c3ccccn3)n2n1)Nc1ccc2c(c1)OCO2
    i	·
CCNC(=O)CP(=O)(c1ccccc1)c1ccccc1
    i	·
O=C(O)c1c[nH]c2cc(OCc3ccccc3)ccc2c1=O
    i	·
COC(=O)C1=C(O)CSC1=Nc1cccc(C(F)(F)F)c1
    i	·
O=C(Nc1ccccc1C(=O)O)c1ncn[nH]1
    i	·
CCOc1ccc(NC(=O)c2cnc3scc(C)n3c2=O)cc1
    i	·
CCOc1c(Br)cc(C(N)=O)cc1OC
    i	>57
CCn1cc(C(=O)O)c(=O)c2cnc(N3CCN(C(=O)Nc4ccccc4)CC3)nc21
    i	>57
O=S(=O)(Nc1ccc2c(c1)nc1n2CCN(Cc2ccccc2)C1)c1ccc(Cl)cc1
    i	?
Cc1[nH]c2ccc3c(ncn3CCC#N)c2c1C
    ·	>26
CC(=O)OC(C)C
    i	·
COc1ccc(OC)c(C2=Nn3c(nnc3-c3ccco3)SC2)c1
    ·	>11
CCCCOc1ccc(C(C)NC(=O)C2CCCN(S(=O)(=O)CC)C2)cc1 (centres undefined)
    i	>57
Cc1ccc(-c2nc(CS(=O)CC(=O)NC3CCCC3)c(C)o2)cc1 (centres undefined)
    i	·
CCOC(=O)C1=C2SCCN2C(=O)C(C#N)C1(C)C (centres undefined)
    i	>57
Cn1cccc1C(=O)OCc1csc(-c2ccccc2)n1
    i	9.3*
Cc1cc(S(=O)(=O)NCC(=O)O)ccc1F
    i	·
COc1ccc(S(=O)(=O)N2CCC(C(=O)N3CCc4ccccc4C3)CC2)cc1
    i	·
O=C(c1cccc(Cl)c1)N1CCCC(C(=O)N2CCCCCC2)C1 (centres undefined)
    i	>57
O=C1C2ON(c3ccc(Br)cc3)C(c3cccnc3)C2C(=O)N1C1CCCCC1 (centres undefined)
    i	>57
COc1ccc(NC(=O)CSc2nnc(Cc3ccccc3)o2)c(OC)c1
    i	>57

4 entries from above, with each value named:
> Cc1[nH]c2ccc3c(ncn3CCC#N)c2c1C
  TsaE inh: · | PK Bst: >26

> CC(=O)OC(C)C
  TsaE inh: i | PK Bst: ·

> COc1ccc(OC)c(C2=Nn3c(nnc3-c3ccco3)SC2)c1
  TsaE inh: · | PK Bst: >11

> CCCCOc1ccc(C(C)NC(=O)C2CCCN(S(=O)(=O)CC)C2)cc1 (centres undefined)
  TsaE inh: i | PK Bst: >57

Printed as active in PK Bst, of those listed so far:
Order of values – TsaE inh	PK Bst
Cc1ccc(N=c2oc3cc(O)ccc3cc2C(N)=O)cc1
    i	9.3*
Cn1cccc1C(=O)OCc1csc(-c2ccccc2)n1
    i	9.3*

Later entries
Order of values – TsaE inh	PK Bst
O=C(C1CCN(S(=O)(=O)c2cccc3cccnc23)CC1)N1CCN(c2ccccc2)CC1
    i	·
c1ccc(-c2nnc3sc(-c4ccncc4)nn23)cc1
    i	·
Cc1ccc(C(=O)NC(Cc2c[nH]c3ccccc23)C(=O)O)o1 (centres undefined)
    i	·
CCOC(=O)c1ccc(N2C(=O)CC(Sc3nnc(C)s3)C2=O)cc1 (centres undefined)
    ·	>26
COc1ccccc1-c1noc(-c2cccnc2)n1
    i	·
Oc1c(C=NCc2ccncc2)sc2ccccc12
    ·	>26
CC1(C(=O)N(CC(=O)NC2CCCC2)Cc2ccco2)CC(=O)N=C2C=CC=CN21 (centres undefined)
    i	>57
COC(=O)N1CCC2(CC1)CCN(c1ccncc1)CC2
    i	·
CCOc1ccccc1C(=O)NCCCn1ccnc1
    i	>57
O=c1c2cnn(-c3ccc(F)cc3)c2ncn1Cc1ccccn1
    i	·
COC(=O)N1CCC[C@@]2(CCN(Cc3nccs3)C2)C1
    i	·
COc1cccc(C(=O)N(Cc2cc3cc(C)ccc3[nH]c2=O)CC2CCCO2)c1 (centres undefined)
    i	>57
Cc1ccc(NC(=O)N2CCCC2C(=O)NCCC2=CCCCC2)cc1 (centres undefined)
    i	>57
COc1ccccc1N1CCN(C/C(O)=C(\C#N)c2nc(-c3ccccc3)cs2)CC1
    i	>57
CC(=O)N1CCN(c2ccc(NC(=O)COc3ccc(Cl)cc3Cl)cc2)CC1
    i	>57
CC(=O)C1=C(C)NC(SCC(=O)c2ccc(Cl)c(Cl)c2)=C(C#N)C1c1ccco1 (centres undefined)
    i	·
Cc1c(C)[n+](=O)c2c(n1[O-])CCC2
    ·	>26
Cc1ccc(S(=O)(=O)N2CCN(C(=O)N3CCOCC3)C2c2ccc(N(C)C)cc2)cc1 (centres undefined)
    i	>57
Cc1cc(NC(=O)c2ccccc2F)n(-c2nc3ccccc3[nH]2)n1
    i	>57
COC(=O)C1=C(C)NC2=C(C(=O)CCC2)C1c1cccs1 (centres undefined)
    i	>57
COc1cccc(N2CCN(C3CC(=O)N(c4ccc(Cl)c(Cl)c4)C3=O)CC2)c1 (centres undefined)
    i	>57
CC(=O)c1ccc(N2CCN(C(=O)c3ccc4c(=O)n(-c5ccccc5)c(=O)[nH]c4c3)CC2)cc1
    i	>57
O=C(Nc1ccccc1N1CCN(C(=O)c2ccc(Cl)cc2)CC1)c1cccnc1
    i	?
CC(C)C(=O)N(c1ccc2oc(=O)sc2c1)S(=O)(=O)c1cccs1
    i	>57
CCOC(=O)N1CCN(c2nnnn2-c2ccccc2)CC1
    i	>57
N#Cc1cnn(Cc2ccc(Cl)cc2)c1N
    i	>57
Fc1cccc(Cl)c1CSc1nnc(COc2cccc3cccnc23)o1
    i	?
Cc1cc(=O)[nH]c(/N=C(\N)Nc2ccc(Cl)cc2)n1
    i	·
CN(C)S(=O)(=O)c1ccc2c(c1)c(=O)c(C(=O)N1CCOCC1)cn2C
    i	·
CCOCCCNC(=O)C(NC(=O)CC1NC(=O)NC1=O)c1ccc(Cl)cc1 (centres undefined)
    i	>57
CCOC(=O)N1CCC(NC(=O)c2cnc3n(c2=O)CCS3)CC1
    i	·
CC(=O)OCC(=O)NCc1ccc2c(c1)OCO2
    i	>57
COc1ccccc1NC(=O)CSc1nnc(-c2ccncc2)o1
    i	>57
Cc1cc2nc3c(=O)[nH]c(=O)nc-3n(C[C@H](O)[C@H](O)[C@H](O)CO)c2cc1C
    i	·
COC(=O)c1ccccc1NC(=O)CSc1nc2c(c(=O)n(C)c(=O)n2C)n1C
    i	·
CCOC(=O)C1CCCN(C(=O)c2cccs2)C1 (centres undefined)
    i	>57
CN(C(=O)COC(=O)COc1ccc(Cl)cc1)C1CCCCC1
    i	>57
Cc1cccc(N2CCN(C(=O)CCNC(=O)Cn3ccc4ccccc4c3=O)CC2)c1C
    i	>57
COc1ccc(NC(=O)N(Cc2cccnc2)Cc2ccccc2Cl)c(OC)c1
    i	·
COc1ccc(C(=O)Nc2ccc3oc(-c4cccc(F)c4)nc3c2)cc1OC
    i	·
Cc1cc(Nc2cccc(C)c2C)n2nc(C)nc2n1
    i	·
Cc1c(-n2c(SCC(=O)O)nnc2-c2ccccc2Cl)c(=O)n(-c2ccccc2)n1C
    i	>57
CCOC(=O)C1CCN(C(=O)C2CCN(S(=O)(=O)c3cccc4cccnc34)CC2)CC1
    i	·
CCOC(=O)C1=C(O)CCn2c1nc1ccccc12
    i	·
CCOC(=O)C1CCN(C(=O)CCNC(=O)c2cc(OC)c(OC)c(OC)c2)CC1
    i	>57
Cc1cc(C(=O)CSc2nnnn2C)c(C)n1CCc1ccc(F)cc1
    i	>57
